# Screens (PubChem)
# Bead autofluor = flagged as autofluorescent in microsphere protease counterscreen. fluorescence intensity (test concentration not listed). 360,000 tested, 3.1% active. compound autofluorescence counterscreen, microsphere flow cytometry; hits give high values;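 active = at least 3 SD above the mean of all compounds, about 16000 in these data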;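 also: 100 nL of 1 mM stock went into each well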
# * hit, by the source's call. A portion of the library, so the mix of outcomes need not match the whole.
smiles	Bead autofluor
COC(=O)[C@]12CCCCC=C1N(Cc1ccc(Cl)cc1Cl)C(=O)[C@H](CC(=O)N1CCCC1)C2	4884
C[C@@H]1CN([C@@H](C)CO)C(=O)CCCn2nncc2CO[C@H]1CN(C)Cc1ccc2c(c1)OCO2	4030
CCCCNC(=O)c1c(N)[nH]c(C(=O)c2ccccc2)c1-c1ccccn1	4210
CC(=O)NC(c1ccccc1)c1nc(-c2cccc(C(=O)O)c2)cs1 (centres undefined)	4023
COc1ccccc1NC(=O)N(C)C[C@H]1OCc2cnnn2CCCC(=O)N([C@H](C)CO)C[C@H]1C	3614
Cc1ccc(S(=O)(=O)N2C[C@H]3C(=O)C[C@@H](c4ccccc4)N(S(=O)(=O)c4ccc(C)cc4)[C@H]3C[C@H]2c2ccc(Cl)cc2)cc1	3884
CC(O)(c1cccnc1)c1nc(-c2cccc3cccnc23)cs1 (centres undefined)	2889
CCc1nc2ccc(C(=O)NCCOc3ccc(OC)cc3)cn2c1N(CC)Cc1ccc(OC)c(OC)c1	3727
Cc1ccc(S(=O)(=O)N2CCC(=O)N([C@H](COCc3cccc(C(F)(F)F)c3)C(C)C)CC2)cc1	5748
C#Cc1cccc(C(=O)N(Cc2cccnc2)CC2CCCN(C3CCCCC3)C2)c1 (centres undefined)	5721
O=C(CCc1ccccc1)N1Cc2cc(N3CCOCC3)ccc2-n2nncc2C1	4395
CCCCCCCCN1C(=O)[C@H](CC(=O)NCc2ccccc2)C[C@@]2(C(=O)OCC)CCCC=C12	6082
COc1ccccc1-c1ccc2c(c1)C(C)(Cc1ccc(F)c(Cl)c1)C(=O)N2 (centres undefined)	3711
COc1ccc(-c2ccc(C(=O)NCc3ccncc3)c3occc23)c(C)c1	4100
COc1ccc(S(=O)(=O)N2CCN(C(=O)c3cccc(S(=O)(=O)N4CCCC4)c3)CC2)cc1	3040
COc1ccc(NC(=O)c2cc(-c3cc(Cl)ccc3OC)n[nH]2)cc1OC	4171
N#Cc1ccccc1OCC(=O)Nc1nc(-c2ccccn2)cs1	3766
COc1ccccc1CNc1cccc(C)n1	3903
CCCS(=O)(=O)NC(=O)C1(C)CCCN(C(=O)c2cc(-c3ccccc3)cs2)C1 (centres undefined)	3659
CC(C)C[C@H]1CN([C@@H](Cc2ccccc2)CN2CCC[C@H]2CN2C(=O)C(=O)NC[C@@H]2Cc2ccc(O)cc2)C(=O)C(=O)N1CC1CCCCCC1	4294
COc1cccc(Cn2c3ccc(NC(=O)Cc4cc(OC)ccc4OC)cc3c(=O)n2C)c1	3452
Cc1cc2oc(=O)cc(CN3CCCCC3)c2cc1Cl	6131
COc1cccc(C(=O)NCCS(=O)(=O)N2CCCC(C)C2)c1 (centres undefined)	3538
Cc1ccccc1S(=O)(=O)N(C)C[C@@H]1OCc2cnnn2CCCC(=O)N([C@H](C)CO)C[C@H]1C	4046
CCOc1ccc(C(CN2CCOCC2)C(C)=O)cc1OC (centres undefined)	5939
C#CCN(C[C@H]1[C@H](OC(=O)NCc2ccccc2)[C@H](OC(=O)NCc2ccccc2)C[C@H]2C(=O)N(c3ccccc3)C(=O)[C@@H]12)S(=O)(=O)c1ccc(C)cc1	3574
O=c1[nH]c2ccccc2n1C1CCN(C(c2ccccc2)c2nnnn2Cc2ccccc2)CC1 (centres undefined)	5888
O=C(O)Cn1ccnc1[N+](=O)[O-]	3673
CC(C)(C)OC(=O)N1CCC(NC(=O)c2[nH]c(C(F)(F)F)nc2-c2ccccc2)CC1	5642
CCc1nc2c(OCC(=O)c3ccc(F)cc3)cccn2c1N(C)C(=O)c1ccccc1F	3968
CCCS(=O)(=O)NC(=O)C1(C)CCN(C(=O)Cc2ccc(OC)cc2)C1 (centres undefined)	3180
Cn1c(=O)c2c(ncn2CC(=O)OCC(=O)c2ccc(OC(F)F)cc2OC(F)F)n(C)c1=O	3778
COc1cccc(-c2cnc3c(NC=O)cc(-c4ccc(O)c(OC)c4)cn23)c1	4239
O=C(COn1nnc2ccc(S(=O)(=O)N3CCOCC3)cc21)NCc1cccc(Cl)c1	3505
C[C@@H]1CN([C@@H](C)CO)C(=O)CCCn2nncc2CO[C@H]1CN(C)C(=O)Cc1ccccc1	3526
CCc1nc2ccc(C(=O)N(CC)CCN(C)C)cn2c1N(C)Cc1nccs1	3497
O=C(Nc1ccc(Cl)cc1)C1Cc2c(-c3ccc4c(c3)OCO4)ccnc2O1 (centres undefined)	3410
CC(C)(C(=O)N1CCC1(C)C(=O)NS(=O)(=O)c1ccccc1Cl)c1ccccc1 (centres undefined)	3680
O=C(NCCN1CCC(n2c(=O)[nH]c3ccccc32)CC1)C(c1ccccc1)c1ccccc1	5879
CCOC(=O)CNC(=O)N1Cc2cc(-c3ccccc3)ccc2-n2nncc2C1	5402
Cc1cccc(OC(C)C(=O)Nc2nc(-c3cccnc3)cs2)c1 (centres undefined)	3055
CCc1cc(-c2nnn(CCC3COCCO3)c2CC)cc(CC)c1-c1cn(Cc2ccc3ccccc3c2)nn1 (centres undefined)	3477
CC(C)CNC(=O)c1cccc2c(-c3cccc(C(N)=O)c3)coc12	3691
COc1ccc(/C=C2/SC(=O)N(CCNC(=O)C3CC(=O)N(Cc4ccccc4)C3)C2=O)cc1 (centres undefined)	4067
CC1(C(=O)NS(C)(=O)=O)CCN1C(=O)Cc1ccc(Cl)cc1Cl (centres undefined)	3525
CCCNC(=O)C1(C)CCCN(Cc2c3ccccc3nn2C)C1 (centres undefined)	3545
N#Cc1cc2cc(Cl)ccc2[nH]c1=O	5934
Cc1cn(CC(=O)NCc2nc3ccccc3[nH]2)c(=O)[nH]c1=O	5190
O=c1[nH]c(=S)[nH]c2c1C(c1ccc(F)cc1)OC(C1CCCCC1)C2 (centres undefined)	4324
CC(O)(c1cccc(F)c1)c1nc(-c2csc3ccccc23)cs1 (centres undefined)	3878
CC1(C)CN(C2CCCCC2)C(=O)[C@H]1CC(=O)Nc1ccc(Br)cc1	4110
O=c1[nH]c2ccccc2n1C1CCN(C(CCc2ccccc2)c2nnnn2-c2ccc3c(c2)OCCO3)CC1 (centres undefined)	5630
CC(=O)Nc1ccc(S(=O)(=O)NC(C)C(=O)OCC(=O)Nc2ccc(F)cc2Cl)cc1 (centres undefined)	3816
CCCCNC(=O)C1(C)CCN1C(=O)c1ccc2ccccc2n1 (centres undefined)	3571
Cc1cc(C)n2c(NC3CCCCC3)c(-c3cccnc3)nc2n1	7946
CCCNC(=O)C1(C)CCCN(C(=O)C2(c3ccc(Cl)cc3)CCCC2)C1 (centres undefined)	3573
COc1cccc(C(C)(O)c2nc(-c3cccc(C(=O)O)c3)cs2)c1 (centres undefined)	2889
Cc1cc(C(=O)OC(C)C(=O)Nc2ccccc2)c(C)n1C1CC1 (centres undefined)	2987
O=C(CCC1CCN(C(=O)C2CC=CCC2)CC1)Nc1ccccc1 (centres undefined)	3549
CCCNC(=O)C1(C)CCCN(C(=O)c2ccc3sccc3c2)C1 (centres undefined)	4144

# Structures listed so far that have a cyano group (2):
smiles	Bead autofluor
N#Cc1ccccc1OCC(=O)Nc1nc(-c2ccccn2)cs1	3766
N#Cc1cc2cc(Cl)ccc2[nH]c1=O	5934

# Later entries
smiles	Bead autofluor
CCc1nc2ccc(C(=O)NCCCN3CCCC3=O)cn2c1N(C)C(=O)C1CCCCC1	3745
CC(C)(C)OC(=O)NCCc1onc(-c2cccc([N+](=O)[O-])c2)c1C(=O)O	3845
CCN(CC)C(=O)c1ccc2nc([C@H]3C[C@H](O)[C@@H](CO)O3)[nH]c2c1	3800
COCCCN1C(=O)C(CC(=O)NCc2ccco2)CC(C(=O)N2CCOCC2)=C1C (centres undefined)	2963
COc1ccccc1CN1CCNC(=O)C1CC(=O)N(C)C1CCOCC1 (centres undefined)	3445
Cc1ccccc1-c1nc(NC(C)C)nc2ccsc12	3830
FC(F)(F)c1ccc(-c2cccc3c2C2CC3CCN2Cc2ccc3c(c2)OCO3)cc1 (centres undefined)	5671
CCOc1ccc(C2C3=C(CC(C)(C)CC3=O)N(CCCOC)C3=C2C(=O)CC(C)(C)C3)cc1OC	3825
CC(=O)N1C(=O)C2(NCC(C)N2)c2ccccc21 (centres undefined)	3764
Cc1cccc(C(=Cc2ccc([N+](=O)[O-])cc2)C(=O)O)c1	3570
COC(=O)C1=C(c2ccc(OCc3ccccc3)cc2)C[C@@H]2CC[C@H]1N2C(=O)NCc1ccccc1OC	3618
COc1ccc(C(C#N)=Cc2cccc(OC)c2OC)cc1	3749
Cn1nc(C2CC2)cc1NC(=O)C1(C)CCN1C(=O)Cc1ccc(-c2ccccc2)cc1 (centres undefined)	3612
COc1ccc(N2CCN(C(=O)c3ccc4c(c3)CCN4S(C)(=O)=O)CC2)cc1	3839
Cc1ccc(S(=O)(=O)NN=C2CC(C)(C)CC(=O)C2(C)C)cc1	3808

# A few values from the list.
# Result for Cc1ccc(S(=O)(=O)NN=C2CC(C)(C)CC(=O)C2(C)C)cc1 under Bead autofluor: 3808
# Result for FC(F)(F)c1ccc(-c2cccc3c2C2CC3CCN2Cc2ccc3c(c2)OCO3)cc1 (centres undefined) under Bead autofluor: 5671
# Result for CC(=O)N1C(=O)C2(NCC(C)N2)c2ccccc21 (centres undefined) under Bead autofluor: 3764
# Result for COc1ccccc1CN1CCNC(=O)C1CC(=O)N(C)C1CCOCC1 (centres undefined) under Bead autofluor: 3445
# Result for Cc1cccc(C(=Cc2ccc([N+](=O)[O-])cc2)C(=O)O)c1 under Bead autofluor: 3570
# Result for CCc1nc2ccc(C(=O)NCCCN3CCCC3=O)cn2c1N(C)C(=O)C1CCCCC1 under Bead autofluor: 3745
# Result for CC(C)(C)OC(=O)NCCc1onc(-c2cccc([N+](=O)[O-])c2)c1C(=O)O under Bead autofluor: 3845

# (list continues)
smiles	Bead autofluor
COC(=O)C[C@H]1C[C@H]2c3cc(NC(=O)NC4CCCC4)ccc3O[C@H]2[C@@H](CO)O1	3703
Cc1cc(=O)oc2cc(OCC(=O)NC3(C#N)CCCCC3)ccc12	3105
CC(=O)Nc1ccc(S(=O)(=O)NCC(=O)OCC(=O)NCCc2ccccc2)cc1	3074
CC[C@@H](NCCCn1cnc2c(SC)ncnc21)c1ccccc1	3520
Cn1c(=O)c2cc(NC(=S)NC3CCCCC3)ccc2n1Cc1ccc(F)cc1	3572
COc1ccc(-n2nnnc2C(c2ccccc2)N2CCC3(CC2)C(=O)NCN3c2ccccc2)cc1 (centres undefined)	6020
Cc1ccc(F)cc1-c1cc(C(=O)NCc2cc(C(F)(F)F)cc(C(F)(F)F)c2)[nH]n1	3759
COc1ccc(CCN2CC(C(=O)NCCc3ncccc3C)CCC2=O)cc1 (centres undefined)	2982
CC(C)C1C(=O)N(Cc2cn(CCC3OCCO3)nn2)CCS(=O)(=O)N1Cc1ccc(-c2ccc(F)cc2Cl)cc1 (centres undefined)	6183
Cc1cc(NC(=O)CS(=O)c2cn(Cc3cccc(Cl)c3)c3ccccc23)no1 (centres undefined)	3860
COc1cccc(-c2cnc(C(O)c3ccc(F)cc3)[nH]2)c1 (centres undefined)	3593
O=C(Nc1ccccc1Cl)OCC#CCOC(=O)Nc1ccccc1Cl	3895
CN(C(=O)COC(=O)c1cccc(S(=O)(=O)N2CCCCCC2)c1)c1ccccc1	2960
Cc1ccccc1-c1cnc(C(O)c2ccc(Cl)c(F)c2)[nH]1 (centres undefined)	3622
COc1ccc(S(=O)(=O)N(C)C[C@H]2OCc3cnnn3CCCC(=O)N([C@@H](C)CO)C[C@H]2C)cc1	3871
O=C(NCc1ccccc1)c1cc(C2CCCCN2S(=O)(=O)c2cccc3cccnc23)on1 (centres undefined)	2942
C[C@@H]1CN([C@@H](C)CO)C(=O)CCCn2cc(nn2)CO[C@H]1CN(C)S(=O)(=O)c1ccccc1C#N	3553
Cc1ccc(S(=O)(=O)Nc2ccccn2)c(C)c1	3484
NC[C@H]1O[C@@H](n2ccc(N)nc2=O)[C@H](O)[C@@H]1O	4426
CC1=C(C(=O)N2CCCCCC2)CC(CC(=O)NC2CCCCC2)C(=O)N1Cc1ccc(C(C)(C)C)cc1 (centres undefined)	4626
CC(C)c1ccc(Nc2nc(N3CCOCC3)nc(N3CCOCC3)n2)cc1	3761
O=C(NCc1cccnc1)c1cc(C2CCCCN2C(=O)OCCF)on1 (centres undefined)	3910
CCOC(=O)CCCCCC(=O)Nc1ccc2c(c1)C(=O)N([C@@H](C)CO)C[C@H](C)[C@H](CN(C)C(=O)c1ccccc1)OCCCC[C@H](C)O2	3737
Cc1ccc(-n2c(-c3ccc(Br)cc3)n[nH]c2=S)c(C)c1	3612
COc1ccccc1Cc1c(-c2ccc(C)cc2)nc2ccc(Br)cn12	6885
CSc1ccc(CNC(=O)C2(C)CCCN2C)cc1 (centres undefined)	3919
COCCCN1C(=O)C(CC(=O)NCc2cccs2)CC(C(=O)N2CCCCCC2)=C1C (centres undefined)	6137
CN(C)c1ncnc2c1ncn2[C@H]1CN(C2CCCC2)C[C@@H](CO)O1	4082
COc1ccccc1CC1(C)C(=O)Nc2ccc(OC(F)(F)F)cc21 (centres undefined)	3457
CCCCn1nnnc1C1(C)CCC(=O)N1CCc1ccc(OC)c(OC)c1 (centres undefined)	5063
CC1CCN(C(=O)c2[nH]c(C(F)(F)F)nc2-c2ccccc2)CC1	5531
NC(CCc1ccccc1)c1csc(NC(=O)NCC2CCCCC2)n1 (centres undefined)	4091
CC(C)(C)S(=O)N1Cc2cc(C(=O)NCC(F)(F)F)nc(-c3cccc(-c4cccc(F)c4)c3)c2[C@H]1CCO (some centres undefined)	5242
CN(C1CCCCC1)S(=O)(=O)c1ccc(SCC(N)=O)nc1	3055
COc1cc(CNC(=O)Nc2nc(C(N)Cc3ccc(C(F)(F)F)cc3)cs2)cc(OC)c1OC (centres undefined)	3939
CC[C@@H]1Cc2[nH][nH]c(=O)c2[C@@H](c2ccc(F)cc2)O1	5237
O=C(CCSc1nc(-c2ccccc2)c(-c2ccccc2)o1)N1CCCCC1	3524
CC(=O)Nc1cccc(-c2csc(C(NC(C)=O)c3ccc(F)c(F)c3)n2)c1 (centres undefined)	3667
